Source: PubChem BioAssay (National Center for Advancing Translational Sciences (NCATS))
2A StopGo – lowers the luciferase signal of an FMDV 2A StopGo reporter; human cells with a luciferase reporter of 2A StopGo recoding; control for the full effect not named in the record; Potency, µM (titrated, usually from 57.9 µM), for the others: at the highest dose signal change, negative = less light; hit rate 1.2% among 410,000; active = well fitted falling curve with a large enough effect; inconclusive = small, poorly fitted or top-dose-only effect; inactive = no such curve, though single readings can be large or run the other way; tested in HEK293T cells; also: % is scaled to controls: 0 for no effect and ±100 for the full control effect; nearly all actives have a fitted effect of over 45% in size; luciferase light after 4 h
SARS PLpro yeast – SARS-CoV PLP inhibition in yeast. S. cerevisiae expressing SARS-CoV PLpro, growth rescue; control for the full effect not named in the record. Potency, µM (highest dose often 32.9 µM), inactives show at the top dose activity, positive = growth rescue. hit rate 0.19% among 330,000. AID 485353; active means well fitted rising curve with a large enough effect; inconclusive means small, poorly fitted or top-dose-only effect; inactive means no such curve, though single readings can be large or run the other way; also: 0% is about no effect; nearly all actives have a fitted effect of over 55% in size; growth read by luminescence after 48 h
RE007 growth inh – less growth of the S. pombe RE007 Vpr strain | S. pombe RE007 Vpr strain, BacTiter-Glo ATP luminescence, 24 h; control for the full effect not named in the record | Potency, µM (series often up to 92.2 µM), without a hit: top-dose activity change, negative = less growth | hit rate 0.21% among 360,000 | AID 651644; active = well fitted falling curve with a large enough effect; inconclusive = small, poorly fitted or top-dose-only effect; inactive = no such curve, though single readings can be large or run the other way;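 also: % is scaled to controls: 0 for no effect and ±100 for the full control effect; nearly all actives have a fitted effect of over 50% in size; the assay follows cell death caused by Vpr and the record does not say whether a fall means rescue or toxicity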
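Fission yeast strain RE007, carrying one chromosomally integrated HIV-1 vpr copy, was seeded at OD 0.01 in PMG+AL medium with 23 nL pinned compound. After 24 h at 30 °C and 99% humidity, viability was read by BacTiter-Glo luminescence.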
An asterisk follows results filed as active; [ ] = another dose, or the depositor's remark. Potency is read from the fitted curve at half-maximal effect.

A first look (4 entries):
`O=C(OCCCc1cc2ccccc2c(=O)o1)c1ccc(C(F)(F)F)cc1` gave 2A StopGo -9%, SARS PLpro yeast 5% and RE007 growth inh 10%.
For COC(=O)c1scc(C)c1-n1ccc(C(=O)C(=O)N(C)C)c1 the results were 2A StopGo -9%, SARS PLpro yeast 0% and RE007 growth inh 22%.
Screening COCCn1c(SCC(=O)NN2C(=O)NC(C)(c3ccccc3)C2=O)nnc1-c1ccncc1 (configuration not stated) returned 2A StopGo -16%, SARS PLpro yeast 3% and RE007 growth inh 15%.
O=C(c1ccc(NS(=O)(=O)c2cccc([N+](=O)[O-])c2)cc1)N1CCN(C(=O)c2ccco2)CC1 was read as 2A StopGo -15%, SARS PLpro yeast 2% and RE007 growth inh -7%.

The listing, repeating the preview:
`O=C(OCCCc1cc2ccccc2c(=O)o1)c1ccc(C(F)(F)F)cc1` gave 2A StopGo -9%, SARS PLpro yeast 5% and RE007 growth inh 10%.
For COC(=O)c1scc(C)c1-n1ccc(C(=O)C(=O)N(C)C)c1 the results were 2A StopGo -9%, SARS PLpro yeast 0% and RE007 growth inh 22%.
Screening COCCn1c(SCC(=O)NN2C(=O)NC(C)(c3ccccc3)C2=O)nnc1-c1ccncc1 (configuration not stated) returned 2A StopGo -16%, SARS PLpro yeast 3% and RE007 growth inh 15%.
O=C(c1ccc(NS(=O)(=O)c2cccc([N+](=O)[O-])c2)cc1)N1CCN(C(=O)c2ccco2)CC1 was read as 2A StopGo -15%, SARS PLpro yeast 2% and RE007 growth inh -7%.
`NC(=O)c1cc(S(=O)(=O)N2CCCC2)ccc1OCCOc1ccccc1` gave 2A StopGo 0%, SARS PLpro yeast -9% and RE007 growth inh 14%.
`COc1ccc(CCC(=O)OCC(=O)NCc2ccc3c(c2)OCO3)cc1` gave 2A StopGo -3%, SARS PLpro yeast 7% and RE007 growth inh -10%.
Screening Cc1nn(-c2ccccc2)c(C)c1NC(=O)COC(=O)c1ccccc1 returned 2A StopGo -3%, SARS PLpro yeast -15% and RE007 growth inh -8%.
Screening O=C(Nc1ccc(NC(=O)c2cccs2)cn1)c1ccccc1 returned 2A StopGo 53%[activator], SARS PLpro yeast 0% and RE007 growth inh -6%.
CC1(C)C(=O)Nc2ccccc2N1C(=O)COC(=O)c1cccc(O)c1 was read as 2A StopGo inconclusive, SARS PLpro yeast -12% and RE007 growth inh 6%.
For CC(C)c1ccc(S(=O)(=O)Nc2ccc3c(c2)OCO3)cc1 the results were 2A StopGo 22%, SARS PLpro yeast -18% and RE007 growth inh 3%.
CSCCC(NC(=O)c1ccc(Cl)cc1)C(=O)O (configuration not stated) was read as 2A StopGo -7%, SARS PLpro yeast 1% and RE007 growth inh 8%.
O=C(CCl)NN1C(=O)NC2(CCCCC2)C1=O was read as 2A StopGo -4%, SARS PLpro yeast 1% and RE007 growth inh -6%.
CC[C@]1(C(=O)OC)[C@H]2C(=O)N(C)C(=O)[C@H]2[C@H]2CN=C(SCc3ccccc3)N21 was read as 2A StopGo -13%, SARS PLpro yeast -1% and RE007 growth inh -4%.
Screening Cc1cc(C(=O)Nc2nnc(C3CC3)s2)c(C)s1 returned 2A StopGo 47%[activator], SARS PLpro yeast 0% and RE007 growth inh -10%.
Screening COc1ccc(S(=O)(=O)Nc2ccc(-c3ccc4nnc(C)n4n3)cc2)c(OC)c1 returned 2A StopGo 0%, SARS PLpro yeast -4% and RE007 growth inh -19%.
`Cc1n(CC(=O)c2ccc(F)cc2)c2ccccc2[n+]1C` gave 2A StopGo -2%, SARS PLpro yeast -1% and RE007 growth inh -19%.
`CCNC(=S)N/N=C(\C)c1ccco1` gave 2A StopGo 1%, SARS PLpro yeast 8% and RE007 growth inh -10%.
`CCC(=O)N1N=C(c2ccc(NS(=O)(=O)c3ccc(C)cc3)cc2)CC1c1ccco1` (configuration not stated) gave 2A StopGo 26%, SARS PLpro yeast 1% and RE007 growth inh 9%.
Screening NNC(=O)c1ccc2[nH]c3c(c2c1)CCCC3 returned 2A StopGo 15%, SARS PLpro yeast 4% and RE007 growth inh -16%.
For COC(=O)CSCC(=O)Nc1nnc(-c2cccc(C)c2)s1 the results were 2A StopGo 2%, SARS PLpro yeast -1% and RE007 growth inh -15%.
O=C(c1ccc([N+](=O)[O-])cc1[N+](=O)[O-])N1CCN(C(=O)C2CCCO2)CC1 (configuration not stated) was read as 2A StopGo -7%, SARS PLpro yeast 2% and RE007 growth inh -14%.
For COC(=O)C1C(O)CC2CCC1N2C (configuration not stated) the results were 2A StopGo -19%, SARS PLpro yeast 0% and RE007 growth inh 6%.
For Cc1[nH]n(-c2ccccc2)c(=O)c1N=Nc1ccc2c(c1)OCCO2 the results were 2A StopGo 69%[activator], SARS PLpro yeast -1% and RE007 growth inh 4%.
Screening COC(=O)c1sc(NC(=O)CSc2n[nH]c(N)n2)c(C(=O)OC)c1C returned 2A StopGo -21%, SARS PLpro yeast -3% and RE007 growth inh 5%.
For O=C(c1cc(C2CC2)nn1-c1ccccc1)N1CCN(S(=O)(=O)c2cccc(F)c2)CC1 the results were 2A StopGo -34%, SARS PLpro yeast -5% and RE007 growth inh 7%.
CCN(C(=O)COC(=O)CC(C)c1ccccc1)c1c(N)n(Cc2ccccc2)c(=O)[nH]c1=O (configuration not stated) was read as 2A StopGo -10%, SARS PLpro yeast 2% and RE007 growth inh -3%.
Screening O=C(CSc1nnc(-c2ccccc2)c2ccccc12)NCCN1C(=O)CSC1=O returned 2A StopGo -5%, SARS PLpro yeast -3% and RE007 growth inh -3%.
For C=CCC[C@H](Cc1ccc(F)cc1)C(=O)OC[C@@H](Cc1c[nH]c2ccccc12)NC(=O)[C@@H](CC=C)CC(=O)N(CCO)Cc1ccccc1 the results were 2A StopGo inconclusive, SARS PLpro yeast -2% and RE007 growth inh -2%.
Screening COc1ccc(CNC(=O)COC(=O)c2c(NC(C)=O)sc(C)c2C)cc1 returned 2A StopGo -4%, SARS PLpro yeast -9% and RE007 growth inh 2%.
`COc1ccc(CN(C)C(=O)C2CCN(S(=O)(=O)c3cccs3)CC2)cc1F` gave 2A StopGo -24%, SARS PLpro yeast 16% and RE007 growth inh 2%.

By substructure, the compounds so far with a furan ring, fused or not
O=C(c1ccc(NS(=O)(=O)c2cccc([N+](=O)[O-])c2)cc1)N1CCN(C(=O)c2ccco2)CC1 was read as 2A StopGo -15%, SARS PLpro yeast 2% and RE007 growth inh -7%.
`CCNC(=S)N/N=C(\C)c1ccco1` gave 2A StopGo 1%, SARS PLpro yeast 8% and RE007 growth inh -10%.
`CCC(=O)N1N=C(c2ccc(NS(=O)(=O)c3ccc(C)cc3)cc2)CC1c1ccco1` (configuration not stated) gave 2A StopGo 26%, SARS PLpro yeast 1% and RE007 growth inh 9%.

Continuation.
`COc1ccc(S(=O)(=O)Nc2cccc3c2O[C@H](CN(C)C(=O)NC(C)C)[C@@H](C)CN([C@H](C)CO)C3=O)cc1` gave 2A StopGo 101%[activator], SARS PLpro yeast 1% and RE007 growth inh 7%.
Cc1ccc(C)c(NC(=O)CSc2ccc(S(=O)(=O)N3CCCC3)cn2)c1 was read as 2A StopGo -7%, SARS PLpro yeast 1%[6.58 µM] and RE007 growth inh -3%.
For Cc1ccc(S(=O)(=O)N2CCC(C(=O)NNC(=O)c3ccccc3)CC2)cc1 the results were 2A StopGo -12%, SARS PLpro yeast -1% and RE007 growth inh 0%.
`CCOc1ccc(CCNC(=O)COC(=O)c2ccc[nH]c2=O)cc1OCC` gave 2A StopGo -13%, SARS PLpro yeast 1% and RE007 growth inh 11%.
For Cc1ccc2c(c1)NC(=O)[C@@]1(C)[C@@H](c3ccccc3)[C@H]3COc4ccccc4[C@@H]3N1C2=O the results were 2A StopGo -28%, SARS PLpro yeast -2% and RE007 growth inh -5%.
For O=C(COC(=O)CCNS(=O)(=O)c1cccs1)Nc1cc(C(F)(F)F)ccc1Cl the results were 2A StopGo 6%, SARS PLpro yeast -2% and RE007 growth inh -16%.
Cc1ccc(CNC(=S)N2CCOCC2)cc1 was read as 2A StopGo 26%, SARS PLpro yeast -1% and RE007 growth inh 2%.
For COc1cccc(NC(=O)CN(C)C(=O)c2cc3c(s2)CCCCC3)c1 the results were 2A StopGo 1%, SARS PLpro yeast -1% and RE007 growth inh -2%.
`CC(C)CN(C(=O)c1cccc(Cl)c1)c1c(N)n(Cc2ccccc2)c(=O)[nH]c1=O` gave 2A StopGo -15%, SARS PLpro yeast -2% and RE007 growth inh -4%.
For Cc1ccc(-c2nc(C=Nc3ccccc3)c(O)o2)cc1 the results were 2A StopGo 0%, SARS PLpro yeast 1% and RE007 growth inh 6%.
`COc1ccc(OC)c(NC(=O)COC(=O)[C@H](Cc2ccccc2)NC(=O)c2ccco2)c1` gave 2A StopGo -16%, SARS PLpro yeast -3% and RE007 growth inh 6%.
Screening Cc1ccc(-c2ccc(C)c(N)c2C)c(C)c1N returned 2A StopGo -25%, SARS PLpro yeast -5% and RE007 growth inh 9%.
`COC(=O)C1=C(c2ccc3ccccc3c2)C[C@@H]2CC[C@H]1N2C(=O)NCc1ccc(F)cc1` gave 2A StopGo -21%, SARS PLpro yeast -4% and RE007 growth inh -5%.
Screening CCOC(=O)C1=CN(Cc2cccc(F)c2)S(=O)(=O)N(C)C1c1ccc(F)c(Cl)c1 (configuration not stated) returned 2A StopGo -4%, SARS PLpro yeast -2% and RE007 growth inh -28%.
Screening COc1cccc(NC(=O)CN2C(=O)NC3(CCCc4ccccc43)C2=O)c1 (configuration not stated) returned 2A StopGo 4%, SARS PLpro yeast -4% and RE007 growth inh -10%.
For C=CCC1([C@@H](C)CCC)C(=O)NC(=O)NC1=O the results were 2A StopGo -21%, SARS PLpro yeast 3% and RE007 growth inh -11%.
Screening COCCNC(=O)c1cc(-c2ccccc2)n(CC2CC(c3ccc(OC)cc3)=NO2)n1 (configuration not stated) returned 2A StopGo 0%, SARS PLpro yeast 4% and RE007 growth inh 13%.
`C=CCC[C@@H](Cc1ccc(F)cc1)C(=O)OC[C@H](Cc1c[nH]c2ccccc12)NC(=O)[C@@H](CC=C)CC(=O)N(CCO)Cc1ccccc1` gave 2A StopGo inconclusive, SARS PLpro yeast 0% and RE007 growth inh -3%.
`CCOC(=O)c1cn(CC)c2cc3c(cc2c1=O)OCO3` gave 2A StopGo -17%, SARS PLpro yeast 4% and RE007 growth inh -15%.
CC1CCC(NC(=O)CN2C(=O)NC3(CCCCC3C)C2=O)CC1 (configuration not stated) was read as 2A StopGo -4%, SARS PLpro yeast -6% and RE007 growth inh 25%.
Screening Cc1ccc(O)c(Cn2nnc3ccccc32)c1 returned 2A StopGo 6%, SARS PLpro yeast -7% and RE007 growth inh 1%.
`CNS(=O)(=O)c1ccc(N2CCCC2)c([N+](=O)[O-])c1` gave 2A StopGo 11%, SARS PLpro yeast 0% and RE007 growth inh 0%.
`CCC(C)(C)NC(=O)COc1ccc(C(=O)c2ccccc2)cc1` gave 2A StopGo -18%, SARS PLpro yeast -10% and RE007 growth inh -1%.
For O=C(Nc1nc(-c2ccco2)c(-c2ccco2)s1)c1c(F)cccc1Cl the results were 2A StopGo -24%, SARS PLpro yeast -4% and RE007 growth inh -9%.
O=C(Cn1ccc(NC(=O)OCc2ccccc2)nc1=O)NCc1ccccn1 was read as 2A StopGo -2%, SARS PLpro yeast 2% and RE007 growth inh -5%.
O=C(C[C@H]1C[C@H](C(=O)N2CCOCC2)[C@@]2(CCC3CCCC3)c3[nH]c4cc(-c5ccco5)ccc4c3CCN2C1=O)NCCN1CCOCC1 was read as 2A StopGo inconclusive, SARS PLpro yeast -3% and RE007 growth inh 5%.
O=C(NCc1ccccc1Br)c1cccc2c1C(=O)c1ccc(N3CCC(Cc4ccccc4)CC3)cc1S2(=O)=O was read as 2A StopGo 16%, SARS PLpro yeast 4% and RE007 growth inh -3%.
Screening Cc1ccc(C)c(C(=O)N(C)CC(=O)Nc2ccccc2C(F)(F)F)c1 returned 2A StopGo -10%, SARS PLpro yeast 2% and RE007 growth inh 7%.
For CCN1C(=O)[C@H]2[C@@H](c3ccc(-c4ccc(F)cc4)c(OC)c3)N3CCCC[C@@]3(C(=O)OC)[C@H]2C1=O the results were 2A StopGo inconclusive, SARS PLpro yeast -1% and RE007 growth inh -16%.
For NC(=O)c1cc([N+](=O)[O-])ccc1NCc1ccc(O)cc1 the results were 2A StopGo -9%, SARS PLpro yeast -2% and RE007 growth inh -2%.
For C[C@@H]1CN([C@H](C)CO)C(=O)c2cc(NC(=O)Nc3ccc(C(F)(F)F)cc3)ccc2O[C@H]1CN(C)Cc1ccc(Cl)c(Cl)c1 the results were 2A StopGo -18%, SARS PLpro yeast 1% and RE007 growth inh -4%.
`Cc1cccc(NC(=O)c2nc[nH]c2C(=O)NCCN(CCNC(=O)c2[nH]cnc2C(=O)Nc2cccc(C)c2)CCNC(=O)c2[nH]cnc2C(=O)Nc2cccc(C)c2)c1` gave 2A StopGo -23%, SARS PLpro yeast 12% and RE007 growth inh 11%.

Some of the compounds tested; count on the stated rates, not on these rows.
